PINK1 modulator – modulators of PINK1 expression | PINK1 immunofluorescence, high-content cytometry, 24 h | 410,000 tested, 0.2% active | Potency, µM (highest dose often 76.6 µM), without a hit: at the top dose activation (PINK1 increase), most hits filed as activators | AID 624263; active = well fitted activation curve with a large enough effect; inconclusive = small, poorly fitted or top-dose-only effect; inactive = flat fitted curve, though single readings scatter; cell line not stated here;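 note: potency is the fitted concentration of half-maximal effect; % of control where 0% means no effect; nearly all actives have a fitted effect of over 65% in size; a mitochondrial uncoupler was the plate control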
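Readout is PINK1 immunofluorescence, quantified alongside mitochondrial, cell and nuclear markers by laser-scanning microplate cytometry. Cells from a stable line were exposed to compound titrations (5 concentrations) for 24 hours, with CCCP controls.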
TRPML1 ag – agonists of human TRPML1 channel. TRPML1-expressing cells, Ca2+ dye fluorescence, FDSS; host cell line not named in the record; reference of the full effect not given here. AID 624414. activation, % (test concentration not listed). Q9GZU1. 410,000 tested, 0.12% active; in the data active = activation above about 50%; inconclusive = about 30% to 50%; inactive = below about 30%; note: 0% is about no effect; the text of the record puts the active cut at 80%
Target sequence (Q9GZU1 whole entry, looked up): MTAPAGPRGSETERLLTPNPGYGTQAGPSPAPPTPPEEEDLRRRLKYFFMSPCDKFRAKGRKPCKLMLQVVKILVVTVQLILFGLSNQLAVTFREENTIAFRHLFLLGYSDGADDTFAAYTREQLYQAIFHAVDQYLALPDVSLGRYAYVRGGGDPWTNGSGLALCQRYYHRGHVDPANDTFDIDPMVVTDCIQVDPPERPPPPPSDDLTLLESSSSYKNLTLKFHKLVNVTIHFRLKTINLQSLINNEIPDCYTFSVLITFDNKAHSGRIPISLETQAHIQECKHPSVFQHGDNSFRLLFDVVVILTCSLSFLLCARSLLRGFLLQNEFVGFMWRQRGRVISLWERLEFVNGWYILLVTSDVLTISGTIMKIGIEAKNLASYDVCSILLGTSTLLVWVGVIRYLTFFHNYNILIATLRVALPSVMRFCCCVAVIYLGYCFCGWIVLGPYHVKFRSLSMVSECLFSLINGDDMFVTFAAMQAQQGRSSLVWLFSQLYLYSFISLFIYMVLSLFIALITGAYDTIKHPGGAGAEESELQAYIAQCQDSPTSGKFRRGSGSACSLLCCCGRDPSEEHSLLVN
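Calcium fluorescence on an FDSS kinetic reader gave the read-out. Tet-induced TRPML1-DL cells were plated overnight, dye-loaded (Ca8 with quencher, 45-90 min, room temperature, dark), then read 110 s after compound addition, and again 110 s after 4uM final 54-4 (EC80).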
Six1-Eya2 blk – blocks human Six1 binding to Eya2; 360,000 tested, 0.56% active; AlphaScreen GST-Six1/His-Eya2 binding, biochemical; active compounds read low; control for the full effect not named in the record; activity change, % (no concentration beside the values); Q15475+O00167; in the data active = activity change below about -65%; inconclusive = about -30% to -65%; inactive = above about -30%; note: % is set by controls: 0 for no effect and ±100 for the full control effect
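Compounds are tested against tagged Six1 and Eya2 proteins bridged by glutathione donor and nickel acceptor beads; after a one-hour incubation at 37 °C without light, AlphaScreen emission is recorded.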
CtBP-E1A inh – blocks the CtBP interaction with E1A. AlphaScreen GST-E1A/His-CtBP binding, 1536-well; active compounds read low; control for the full effect not named in the record. AID 651724. 340,000 tested, 0.49% active. activity change, % (no concentration beside the values); in the data active means activity change below about -65%; inconclusive means about -30% to -65%; inactive means above about -30%; note: % is set by controls: 0 for no effect and ±100 for the full control effect
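GST-E1A and His-tagged CtBP (125 nM each as 5X stock) were preincubated with pin-transferred compound for 2 h at 37 °C in the dark, then glutathione donor and nickel acceptor beads were added for 1 h before AlphaScreen reading.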
D2 ag – human D2 receptor agonism in beta-arrestin assay | DiscoveRx PathHunter D2 beta-arrestin, luminescence, 90 min; 100% = 57 uM dopamine signal | activation, % (no concentration beside the values) | 360,000 tested, 0.084% active | AID 624465; in the data active = activation above about 40%; inconclusive = about 15% to 40%; inactive = below about 15%; note: compound concentration not given in the record; the text of the record calls up to 30% inactive
Target sequence (P14416 whole entry, looked up): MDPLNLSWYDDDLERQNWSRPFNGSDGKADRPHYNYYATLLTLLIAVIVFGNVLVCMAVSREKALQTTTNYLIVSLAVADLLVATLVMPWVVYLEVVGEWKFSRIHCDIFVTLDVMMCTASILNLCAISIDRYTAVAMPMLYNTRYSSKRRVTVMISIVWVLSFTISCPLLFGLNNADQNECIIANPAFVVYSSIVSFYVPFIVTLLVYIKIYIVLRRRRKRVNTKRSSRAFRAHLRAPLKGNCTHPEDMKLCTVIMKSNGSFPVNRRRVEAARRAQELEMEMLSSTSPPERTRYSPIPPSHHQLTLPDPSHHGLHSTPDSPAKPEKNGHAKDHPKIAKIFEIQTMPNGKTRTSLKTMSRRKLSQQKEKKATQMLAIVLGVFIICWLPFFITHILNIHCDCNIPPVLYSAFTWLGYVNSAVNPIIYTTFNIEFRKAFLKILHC
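DiscoveRx PathHunter D2 beta-arrestin cells (2,100/well) attached overnight, then compound-stimulated 90 min at 37 C in HBSS/10 mM HEPES/0.1% Tween-20 buffer; beta-galactosidase complementation read by luminescence after 1 h at ambient temperature. Dopamine 57 uM final (EC100) as control.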
TRPML1 blocker – inhibitors of human TRPML1 channel; Q9GZU1; TRPML1-inducible cells, Ca2+ dye fluorescence, FDSS; active compounds read low; inhibition of EC80 agonist-evoked calcium signal; activity change, negative = inhibition, % (concentration not given with the values); 390,000 tested, 0.02% active; in the data active means activity change below about -50%; inconclusive means about -30% to -50%; inactive means above about -30%;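 note: stimulus is agonist 54-4 at its EC80 concentration; % is set by controls: 0 for no effect and ±100 for the full control effect; the text of the record puts the active cut at -80%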
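TRPML1-DL cells, Tet-induced overnight (~16 h, 37 °C) at 1,500 cells/well, were loaded with Ca8 no-wash dye plus quencher for 45-90 min at room temperature. Compounds were pinned during FDSS kinetic reading; agonist 54-4 at EC80 (4 uM final) then added.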
Numbers without * were called inactive; u = inconclusive; x = no result given; [ ] = dose if it differs, or a comment.

SMILES | PINK1 modulator | TRPML1 ag | Six1-Eya2 blk | CtBP-E1A inh | D2 ag | TRPML1 blocker
COc1ccc(N(CC(=O)Nc2cc(OC)ccc2OC)S(C)(=O)=O)cc1 | -1.7% | 2.4 | -2 | 0 | -2.0 | 8
COc1cc([N+](=O)[O-])ccc1N1C(=O)C2C3C=CC(C4CC34)C2C1=O (stereo not drawn) | 0.0% | -0.3 | -3 | 21 | 1.5 | 14
COc1cc(NC(=O)COC(=O)Cc2ccsc2)cc(OC)c1 | 1.3% | 1.8 | -2 | 5 | 1.4 | -2
O=c1nc2sc3ccccc3n2c(=O)n1-c1ccc(Cl)c(Cl)c1 | 2.0% | -0.1 | x | x | x | 20
O=C1OC2(c3ccccc3)C3CCCC2C13 | 3.8%[38.3 µM] | 0.1 | 4 | 1 | 0.0 | 7
CC(C)c1ccc(S(=O)(=O)N2CCN(C(=O)CN3C(=O)NC4(CCCC4)C3=O)CC2)cc1 | -0.2% | 0.1 | 3 | 2 | -3.2 | -10
O=C1C2C3C=CC(CC3)C2C(=O)N1c1ccccc1F (stereo not drawn) | 2.3% | 0.0 | 0 | 4 | -3.2 | 12
C/C(=N\NC(=O)c1ccc(NS(=O)(=O)c2cccs2)cc1)c1ccccc1 | 1.7% | -0.1 | 2 | 10 | -1.0 | 4
COc1ccc(NC(=O)CSCC(=O)N(C)CC(=O)Nc2ccc(Cl)c(C(F)(F)F)c2)cc1 | -1.0% | 1.5 | -4 | -1 | 0.5 | -7
O=C(Nc1nc(=O)[nH]s1)c1ccccc1 | -1.1% | 3.0 | -6 | -10 | -3.4 | 2
N#CC1(c2cccc(Br)c2)C(=O)Nc2ccccc21 (stereo not drawn) | 1.1% | 1.8 | -10 | -15 | -11 | -1
COc1ccc(NC(=O)c2ccccc2OCc2ccc(F)cc2)c(OC)c1 | 0.1% | 1.6 | 2 | -11 | -2.0 | -10
N#CCCC12CCCCC1=Nc1ccccc12 (stereo not drawn) | -0.4% | -0.7 | 7 | 5 | -3.5 | -6
Cc1c(C(=O)OCC(=O)Nc2ccc3c(c2)OCO3)cccc1[N+](=O)[O-] | 0.6% | 0.8 | -5 | -14 | -3.2 | 50
CNc1nc(SC)nc2ccccc12 | -0.3% | 0.1 | 14 | -7 | -4.1 | 4
CCOC(=O)c1c(NC(=S)NNS(=O)(=O)c2ccc(Br)cc2)sc2c1CCCCC2 | 6.7% | -0.5 | -16 | -4 | -3.6 | 0
CCN1CCN(CC(=O)N2CCCC(C(=O)c3ccc(Oc4ccccc4)cc3)C2)CC1 (stereo not drawn) | -0.6% | 3.1 | -2 | x | 0.0 | -6
O=C(O)Cn1cc(C(=O)C2CC2)c2ccccc21 | u | 0.7 | 30 | 0 | -1.3 | -17
CC(=O)c1c(N2CCN(C(=O)C3CCCO3)CC2)nc(=S)n(-c2ccccc2)c1C (stereo not drawn) | u | 0.8 | 3 | -24 | -0.5 | -10
Cc1ccc(OCC(=O)N2CCOCC2)c([N+](=O)[O-])n1 | -0.2% | 0.8 | 0 | -2 | 2.8 | 1
CC(C)Sc1nc2c(c(=O)[nH]c(=O)n2C)n1Cc1ccccc1 | 0.2% | -0.2 | 7 | 3 | -3.3 | 3
Cc1ccc(NC2=CC(=O)CC(c3ccco3)C2)c(N)c1 (stereo not drawn) | 3.0% | 0.8 | -2 | -10 | 0.2 | -1
CCOC(=O)C1CCN(c2c(NC3CCCc4ccccc43)c(=O)c2=O)CC1 (stereo not drawn) | 0.5% | -0.9 | 2 | 1 | -2.5 | -9
O=c1[nH]c(=S)n(C2CCCCC2)c(O)c1C=NCCN1CCOCC1 | 0.0% | 0.1 | 3 | x | -4.4 | -1
CCOC(=O)C(=O)Nc1ccc(S(=O)(=O)N2CCOCC2)cc1OC | 6.1%[38.3 µM] | 0.6 | 4 | -16 | -3.7 | -8
O=C(CSc1nc2cc(C(F)(F)F)ccc2n1Cc1ccccc1)NC1CCS(=O)(=O)C1 (stereo not drawn) | 2.2% | 0.6 | 4 | 0 | -2.1 | 3
Cc1c(C(=O)Nc2nccs2)oc2ccccc12 | 5.8% | 0.2 | -11 | -9 | -6.3 | -3
Cn1c(N)c(C(=O)COC(=O)COc2cccc(Br)c2)c(=O)n(C)c1=O | 0.6% | 2.6 | -6 | 2 | 2.6 | 35
N/C(=N\OC(=O)c1ccncc1)c1cccc([N+](=O)[O-])c1 | 0.7% | -0.1 | -5 | 1 | u | 10
COC(=O)[C@]12CCCCC=C1N(Cc1ccccc1)C(=O)[C@H](CC(=O)NCc1cccs1)C2 | 0.2% | -0.5 | 7 | -20 | x | x
CCc1cccc(NC(=O)CCc2nc(-c3cccs3)no2)c1 | -0.6% | -1.6 | 5 | 6 | -5.3 | 1
COC(=O)Nc1ccc2c(c1)N(C(=O)CCN1CCOCC1)c1ccccc1S2 | -1.0%[38.3 µM] | 0.0 | -5 | -23 | 0.2 | 7
CCOC(=O)/C=C/C(=O)NNC(=O)c1ccccc1Cl | -0.2% | 1.3 | 4 | 1 | -5.4 | 3
O=C(COc1ccc2oc3c(c2c1)CCCC3)Nc1ccccn1 | 8.2% | -0.3 | 3 | 1 | -1.7 | -9
O=C(CCCC(=O)c1ccccc1)Nc1ccc(O)cc1 | 0.1% | 3.1 | 2 | -16 | 0.6 | 24
Cc1ccc([N+](=O)[O-])cc1NC(=O)c1ccc(-c2ccccc2)cc1 | 13% | -0.8 | 7 | -1 | -3.1 | 5

Pulled by compound from the list above:
SMILES | PINK1 modulator | TRPML1 ag | Six1-Eya2 blk | CtBP-E1A inh | D2 ag | TRPML1 blocker
COc1ccc(NC(=O)c2ccccc2OCc2ccc(F)cc2)c(OC)c1 | 0.1% | 1.6 | 2 | -11 | -2.0 | -10
COC(=O)[C@]12CCCCC=C1N(Cc1ccccc1)C(=O)[C@H](CC(=O)NCc1cccs1)C2 | 0.2% | -0.5 | 7 | -20 | x | x

Going on with the list:
SMILES | PINK1 modulator | TRPML1 ag | Six1-Eya2 blk | CtBP-E1A inh | D2 ag | TRPML1 blocker
CCN(C[C@H]1N[C@@](C)(C(=O)OC)[C@H]2C(=O)N(C)C(=O)[C@@H]12)C(=O)Nc1ccc(C)cc1 | 1.0% | -0.7 | 2 | 9 | 0.8 | 0
COc1ccc(S(=O)(=O)N2CCN(C)CC2)cc1NC(=O)c1ccccc1C | -1.1% | 0.1 | -3 | -3 | -3.7 | 23
COc1ccc(NC(=O)c2cncc(Br)c2)cc1S(=O)(=O)N1CCCCC1 | 1.3% | -0.5 | -13 | -18 | -2.0 | -8
Cc1csc(=O)n1CC(=O)OCC(=O)NNC(=O)c1ccc(Cl)cc1 | 0.6% | 1.6 | 3 | 2 | 6.3 | 0
O=C(NCc1cccnc1)c1cccn2c(=O)c3sccc3nc12 | -1.4% | -0.4 | u | u | -2.2 | 1
Cc1ccc(-c2c(C(=O)N3CCN(c4cccc(C)c4)C(C)C3)oc(=O)c3ccccc23)cc1 (stereo not drawn) | -0.9% | 0.5 | x | x | x | 2
Cc1cccc(-c2nc3c(c(SCC(=O)N4CCOCC4)n2)Cc2c(CO)cnc(C)c2O3)c1 | 3.8% | -0.7 | -15 | -23 | u | 14
COc1cccc(CNc2nc3ccc(NC(C)=O)cc3s2)c1 | 0.0% | -1.0 | -10 | -3 | -1.0 | 7
Cc1nn(CCOc2ccc(Br)cc2)c(C)c1[N+](=O)[O-] | 1.5% | 0.8 | 2 | 8 | 1.7 | 8
CC(NS(=O)(=O)c1ccc2c(c1)c(=O)n(C)c(=O)n2C)C(=O)NC1CCCCC1 (stereo not drawn) | -1.3% | 0.8 | -1 | -2 | -5.5 | -22
CCc1nc2ccc(C(=O)NCCCN3CCN(c4ccc(F)cc4)CC3)cc2nc1CC | -0.3% | 0.0 | u | -9 | 6.3 | 4
CCc1nnc(NC(=O)CSc2ccc(-c3ccco3)nn2)s1 | -1.4% | 0.7 | 2 | 3 | -5.5 | 29
CCCN(C(=O)C1CC(=O)N(c2ccccc2C(C)CC)C1)C1CCS(=O)(=O)C1 (stereo not drawn) | 2.6% | 3.0 | -1 | 0 | -3.0 | 4
CCC(C)(C)NC(=O)c1cc(S(=O)(=O)N2CCCCC2)ccc1N1CCOCC1 | 1.2% | 1.0 | 12 | -18 | -1.3 | 31
O=C(CCc1ccccc1)NNC(=O)c1ccc(Br)cc1 | 0.9% | -0.3 | -6 | -3 | -1.2 | -6
CCc1ccccc1NC(=O)Cn1nnc(C(=O)Nc2ccc(OC)c(OC)c2)c1N | 11% | 1.4 | x | x | x | 21
COC(=O)c1cc(C#N)c(Oc2ccccc2OC)nc1C | -0.2% | 3.6 | 40 | 6 | -1.4 | 10
O=C(O)CCCCCCCCCCP(=O)(c1ccccc1)c1ccccc1 | -0.4% | 1.0 | 3 | 0 | -0.6 | 14
O=c1cc(CN2CCOCC2)c2ccccc2o1 | -0.4% | -0.6 | 1 | 1 | 3.8 | x
Cn1c(N)c(C(=O)CSc2nnc(Cc3cccs3)n2C2CC2)c(=O)n(C)c1=O | 2.2% | 0.4 | -6 | 7 | -3.1 | -16
COC(=O)NCC(c1ccco1)N1CCN(c2ccc(F)cc2)CC1 (stereo not drawn) | 0.2% | -0.1 | 7 | 1 | -4.9 | -10
Cc1c(C(=O)Nc2cccc(-c3nnc4n3CCCCC4)c2)oc2ccccc12 | -2.1% | 2.3 | -13 | -9 | -8.1 | 18
CCOC(=O)C1(C)CCN1C(=O)c1ccc(C)cc1 (stereo not drawn) | 2.0% | -1.0 | 2 | 3 | 2.8 | x
COc1ccc2c(c1)C(=C(C#N)C#N)C(=O)N2CCc1ccccc1 | 0.9% | 6.8 | -18 | -1 | 4.7 | -14
CCOC(=O)C1(CCCc2ccccc2)CCN(C(=O)CN2C(=O)CSC2=O)CC1 | -1.4% | 0.3 | -4 | 2 | 9.2 | 0
Cc1ccc(NC(=O)CSc2[nH]c(=O)ncc2C)cc1 | 3.4% | 1.4 | x | x | x | 19
CCN(CC)S(=O)(=O)c1ccc(F)c(C(=O)NCCC(C)C)c1 | u | 1.1 | 4 | 7 | 1.7 | 20
O=C(CCNc1ccc(F)cc1)c1cccc([N+](=O)[O-])c1 | u | 1.3 | -25 | u | 2.9 | 39
C=CCNC(=S)NNC(=O)c1ccc(OCCCC)cc1 | 1.6% | -0.5 | 6 | -3 | -0.4 | -8

Rewritten with values under each structure: 3 of the compounds above.
Sequence of screens: PINK1 modulator | TRPML1 ag | Six1-Eya2 blk | CtBP-E1A inh | D2 ag | TRPML1 blocker
CCN(CC)S(=O)(=O)c1ccc(F)c(C(=O)NCCC(C)C)c1
    u | 1.1 | 4 | 7 | 1.7 | 20
O=C(CCNc1ccc(F)cc1)c1cccc([N+](=O)[O-])c1
    u | 1.3 | -25 | u | 2.9 | 39
CCOC(=O)C1(CCCc2ccccc2)CCN(C(=O)CN2C(=O)CSC2=O)CC1
    -1.4% | 0.3 | -4 | 2 | 9.2 | 0

Assay outcomes (PubChem)
